# AF4-AF9 inh: MLL-AF4/AF9 protein interaction inhibition. P42568. AlphaScreen, biotin-AF4 peptide binding to FLAG-AF9. inhibition, % at 10 µM. 350,000 compounds, 0.47% hits;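 active = every replicate reaching a set inhibition limit, whatever the replicate mean, cut at about 25% in these data; inconclusive = mean inhibition reaches that limit but some replicates miss it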;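 also: 0% = plate neutral control median and 100% = total signal loss; the record names both 10 and 1 µM as test concentration; the first replicate is given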
# FGF22 binding: FGF22 (human) thermal shift binding; recombinant FGF22 thermal shift, SYPRO orange fluorescence; percent of sucrose octasulfate shift, DMSO zero; calls only at 9.99 µM; 340,000 compounds, 1.5% hits; AID 651658;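 active = melting point raised past a set limit in the mean and every replicate; inconclusive = no clear call; three in four hits are not shown here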
# Target sequence (Q9HCT0 whole entry, looked up): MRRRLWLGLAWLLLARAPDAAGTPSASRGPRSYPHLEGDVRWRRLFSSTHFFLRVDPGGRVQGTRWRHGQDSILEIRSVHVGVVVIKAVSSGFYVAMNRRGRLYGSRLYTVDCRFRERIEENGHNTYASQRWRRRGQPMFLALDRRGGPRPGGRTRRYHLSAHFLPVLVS
# Starred values were filed as active, the others as inactive; i = inactive; ? = inconclusive.
AF4-AF9 inh	FGF22 binding	compound
-3.9	i	COc1cccc(S(=O)(=O)N(C)C[C@H]2Oc3cc(C#CCC(C)C)ccc3S(=O)(=O)N([C@H](C)CO)C[C@H]2C)c1
4.1	i	COc1ccccc1NC(=O)N1CCCCN2[C@H](CO)[C@H](c3ccc(-c4ccc(C)cc4)cc3)[C@@H]2C1
-3.3	i	O=C(Nc1ccccc1F)N[C@@H]1CC[C@@H](CCNS(=O)(=O)c2ccccc2)O[C@H]1CO
-15.0	i	COc1ccc(-c2cnc3c(c2)C(=O)N([C@@H](C)CO)C[C@H](C)[C@@H](CN(C)C)O3)cc1
-2.4	i	CCCNC(=O)N(C)C[C@H]1Oc2cc(C#CCOC)ccc2S(=O)(=O)N([C@H](C)CO)C[C@@H]1C
1.8	i	COc1ccc(NC(=O)N[C@@H]2CC[C@H](CC(=O)NCc3ccccn3)O[C@@H]2CO)cc1
-2.4	i	C[C@H]1CN([C@@H](C)CO)C(=O)c2cccc(NS(=O)(=O)c3cn(C)cn3)c2O[C@H]1CN(C)C(=O)Nc1ccc(F)cc1
?	i	C[C@@H]1CCCCO[C@H](CN(C)C(=O)Nc2cccc3ccccc23)[C@H](C)CN([C@H](C)CO)C(=O)c2cc(N(C)C)ccc2O1
-1.2	i	C[C@@H]1CN([C@H](C)CO)C(=O)Cc2cc(NC(=O)CCN3CCOCC3)ccc2O[C@H]1CN(C)S(C)(=O)=O
-0.2	i	CC(=O)N1[C@@H]2c3ccc(-c4ccccc4F)c(=O)n3C[C@@H]2[C@@H](CO)[C@@H]1C(=O)NCC1CC1

# Whole records as entered above. Order of values: AF4-AF9 inh, FGF22 binding
# COc1ccc(-c2cnc3c(c2)C(=O)N([C@@H](C)CO)C[C@H](C)[C@@H](CN(C)C)O3)cc1 is listed as -15.0, i
# O=C(Nc1ccccc1F)N[C@@H]1CC[C@@H](CCNS(=O)(=O)c2ccccc2)O[C@H]1CO is listed as -3.3, i
# COc1ccc(NC(=O)N[C@@H]2CC[C@H](CC(=O)NCc3ccccn3)O[C@@H]2CO)cc1 is listed as 1.8, i
# C[C@@H]1CN([C@H](C)CO)C(=O)Cc2cc(NC(=O)CCN3CCOCC3)ccc2O[C@H]1CN(C)S(C)(=O)=O is listed as -1.2, i

# New compounds follow:
AF4-AF9 inh	FGF22 binding	compound
-0.7	i	C[C@H]1CN([C@@H](C)CO)C(=O)c2cccc(NC(=O)Nc3ccc(F)cc3)c2O[C@H]1CN(C)Cc1ccc(C(=O)O)cc1
1.1	i	C[C@@H]1CN([C@@H](C)CO)C(=O)Cc2cc(NC(=O)Nc3ccc(C(F)(F)F)cc3)ccc2O[C@@H]1CN(C)S(=O)(=O)c1cccs1
-4.1	i	C[C@H]1CN([C@@H](C)CO)C(=O)Cc2cc(NC(=O)Nc3ccc(C(F)(F)F)cc3)ccc2O[C@@H]1CN(C)CC1CC1
-2.0	i	CC(=O)N1[C@@H](CO)[C@@H](c2ccccc2)[C@@H]1CNC(=O)CN1CCOCC1

# Some of the entries so far, as labelled records:
compound: C[C@H]1CN([C@@H](C)CO)C(=O)c2cccc(NC(=O)Nc3ccc(F)cc3)c2O[C@H]1CN(C)Cc1ccc(C(=O)O)cc1
  AF4-AF9 inh = -0.7
  FGF22 binding = i

compound: CC(=O)N1[C@@H](CO)[C@@H](c2ccccc2)[C@@H]1CNC(=O)CN1CCOCC1
  AF4-AF9 inh = -2.0
  FGF22 binding = i

compound: C[C@H]1CN([C@@H](C)CO)C(=O)Cc2cc(NC(=O)Nc3ccc(C(F)(F)F)cc3)ccc2O[C@@H]1CN(C)CC1CC1
  AF4-AF9 inh = -4.1
  FGF22 binding = i

# Source: PubChem (Broad Institute)

# These rows are one share of the data, so the mix of outcomes need not match the whole.
